High-throughput results (PubChem)
MbtI inh = MbtI salicylate synthase inhibition. inhibition, %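 (about 17 µg/mL by stock and volumes)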. 0.89% of 100,000 active. P9WFX0. purified MbtI enzyme, fluorescence intensity read-out;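 active = above 50% in both replicates, above 80% if mildly self-fluorescent; inactive = the rest, strongly fluorescent compounds included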;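 also: 0% = mean of negative and 100% = mean of positive controls; one replicate is shown; some compounds called inactive have numbers as strong as hits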
Target sequence (P9WFX0 whole entry, looked up): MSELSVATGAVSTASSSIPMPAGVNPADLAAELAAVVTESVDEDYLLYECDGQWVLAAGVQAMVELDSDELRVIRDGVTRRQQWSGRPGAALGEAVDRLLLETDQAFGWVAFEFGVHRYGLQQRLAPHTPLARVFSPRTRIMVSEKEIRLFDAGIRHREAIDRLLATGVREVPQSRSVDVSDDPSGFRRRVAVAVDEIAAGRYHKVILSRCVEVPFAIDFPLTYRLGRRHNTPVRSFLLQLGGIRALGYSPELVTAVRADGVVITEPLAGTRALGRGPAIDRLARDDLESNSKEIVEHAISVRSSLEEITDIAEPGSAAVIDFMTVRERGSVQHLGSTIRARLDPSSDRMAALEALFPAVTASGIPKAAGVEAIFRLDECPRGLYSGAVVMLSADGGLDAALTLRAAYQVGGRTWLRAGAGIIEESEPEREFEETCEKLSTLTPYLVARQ
Polio RdRp inh = inhibitors of poliovirus RNA polymerase binding and polymerization; P03300; poliovirus polymerase elongation, fluorescence polarization; stronger effect = lower value; % elongation, % (compound at 16.7 µg/mL); 0.66% of 150,000 active; AID 588519; in the data active = % elongation below about 90%; also: some results filed as inactive read as strong as hits
Target sequence (P03300 1749-2209 limits assumed): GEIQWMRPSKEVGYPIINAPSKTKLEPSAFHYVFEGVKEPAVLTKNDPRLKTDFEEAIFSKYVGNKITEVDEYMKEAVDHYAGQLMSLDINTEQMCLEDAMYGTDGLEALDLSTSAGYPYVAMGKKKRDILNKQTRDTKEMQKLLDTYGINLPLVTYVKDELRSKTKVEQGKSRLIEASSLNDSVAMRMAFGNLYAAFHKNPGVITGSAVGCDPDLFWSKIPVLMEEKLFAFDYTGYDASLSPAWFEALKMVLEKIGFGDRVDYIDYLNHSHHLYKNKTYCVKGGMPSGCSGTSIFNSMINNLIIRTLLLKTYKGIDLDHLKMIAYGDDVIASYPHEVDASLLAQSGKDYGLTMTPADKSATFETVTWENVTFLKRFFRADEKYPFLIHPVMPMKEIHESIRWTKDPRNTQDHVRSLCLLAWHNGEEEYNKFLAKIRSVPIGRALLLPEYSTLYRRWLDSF
Mtb MenB inh = blocks the Mycobacterium tuberculosis MenB enzyme; MenB enzyme assay, absorbance read-out; some hits fall short of the stated cut; AID 540299; P9WNP5; inhibition, %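 (about 12 µg/mL by stock and volumes)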; 0.43% of 100,000 active;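 active = mean of two replicates above 30%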;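 also: 0% = no compound and 100% = wells with inactive enzyme; the first replicate is given; strong numbers were not always called active; inactives centre near -10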
Polio RdRp inh intensity = second read-out of Polio RdRp inh, no call of its own (marks repeat the call); % elongation; measured here: total intensity read-out; formula for this scale not given here;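 total fluorescence in place of polarization; lower means less elongation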
The depositor's hits bear a star; nt = no result given; & = joins results of further samples.

SMILES	MbtI inh	Polio RdRp inh	Polio RdRp inh intensity	Mtb MenB inh
COC(=O)c1c(C)nc2nonc2c1N	23	101	101	-46
Cc1ccc(-c2nn(-c3ccccc3)cc2C(=O)N(C)C2CCN(C)CC2)cc1	-16	104	102	nt
Cc1[nH]c2ccc(C(=O)O)cc2c1C	-43	103	96	-17
COc1ccc(Cc2nn[nH]n2)cc1	-4	103	99	5
CCNC(=O)c1ccc(C2SCC(=O)N2Cc2ccco2)cc1 (configuration not stated)	8	100	104	-8
COc1cc(-c2nnc(COC(=O)c3cccnc3SC)o2)cc(OC)c1OC	-15	110	109	-14
CCOC(=O)N1CCN(C(=O)c2cnc3n(c2=O)CCS3)CC1	2	103	102	-29
COCC(C)n1c(C)cc(C(=O)COC(=O)[C@@H]2CCCN2C(=O)c2cccs2)c1C (some centres not stated)	9	104	100	-17
COC(=O)Cn1c(=NC(=O)C(C)(C)C)sc2cc(F)ccc21	4	100	101	9
CC1Cn2c(nnc2-c2cccc(O)c2)S1 (configuration not stated)	nt	99	104	-8
CN(C)c1nc2c([nH]1)c(=O)[nH]c(=O)n2C	nt	100	103	5
COc1cc(Cl)c(C)cc1NC(=O)COC(=O)CCC1CCCC1	-5	103	102	nt
CC(C)c1ccccc1N=C1SCCN1C	-3	99	103	-3
CS(=O)(=O)CCSc1ncccc1C(=O)NCc1cccs1	-4	100	97	-31
COc1cccc(NC(=O)c2ccc(C)cc2)c1	7	100	102	14
C=CCN(Cc1nc(-c2ccc(C)cc2)no1)C(=O)C(C)(C)C	-6	105	102	-44
Cc1csc(SCC(=O)Nc2cc(C(C)(C)C)nn2-c2ccccc2)n1	-2	101	97	-7
N#C/C(=C\c1cc(Br)cs1)c1cccs1	4	102	108	-41
CC1=NN(c2ccccc2)C(=O)C1/C=C1\SC(=S)N(CC2CCCO2)C1=O (configuration not stated)	nt	106	109	-8
Nc1ccc(Sc2ccc(N)cc2C(=O)O)c(C(=O)O)c1	10	101	96	-24
COc1ccc(-c2nnc(SC/C(O)=C(\C#N)c3nc4ccccc4s3)n2CC2CCCO2)cc1 (configuration not stated)	4	103	110	-19
CCc1c(C)sc(NC(=O)CCCC(=O)O)c1C(N)=O	nt	81*	91*	-2
Cc1ccc(SC(C)C(=O)NC2CCCCC2)cc1 (configuration not stated)	-8	nt	nt	-7
CC(=O)Oc1ccc2c(c1)oc(=O)c1c3cc(OC(C)=O)c(OC(C)=O)cc3oc21	20	101	100	-4
Clc1ccc(-c2nc3sccn3c2/C=N/OCc2ccc(Cl)c(Cl)c2)cc1	1	98&98	103&99	-2
Cc1ccc2nc(CSCc3nc4ccc(Cl)cc4n3CCO)cc(=O)n2c1	110	101	108	-15
Cc1ccc(C(=O)NCCn2nc(C)cc2C)cc1	-10	104	105	-36
CCCCNc1nnc(SCc2nc3ccsc3c(=O)[nH]2)s1	30	102	106	-2
CN1CCN(/N=C/c2ccc(N(C)c3ccccc3)cc2)CC1	1	108	114	-6
CCC(NS(=O)(=O)c1ccc(C)cc1)C(=O)NCc1ccccc1 (configuration not stated)	-6	105	109	-22
NC(=S)CCn1ncc2c(N)ncnc21	68	91	104	-10
O=C(NCCc1ccccc1)C1CCN(C(=O)C(C(=O)c2ccccc2)n2ccccc2=O)CC1 (configuration not stated)	nt	106	100	6
CN(C)NC1=CC(=[N+]2CCCCC2)CC(C)(C)C1	14	101	103	nt
CCOC(=O)c1ccc(NC(NC(=O)OC)(c2ccccc2)C(F)(F)F)o1 (configuration not stated)	6	102	101	-6
CCc1ccc(Nc2nnc(SCC(=O)Nc3cccc4nsnc34)s2)cc1	-13	101	105	-44
CN(C)S(=O)(=O)c1ccc(C(=O)CSc2nnc(C3COc4ccccc4O3)n2C)cc1 (configuration not stated)	-5	101	105	-2
O=S(=O)(c1ccc(F)cc1)N(CCO)CC(O)Cn1c2ccccc2c2ccccc21 (configuration not stated)	33	102	102	-3
O=C(Nc1ncccn1)C1CCCCC1	-2	102	104	-38
COc1ccc(OCCSCC(=O)N2CCN(c3ccc(OC)cc3)CC2)cc1	-5	104	106	-37
Cc1cc(-c2ccc(S(=O)(=O)N3CCC(C)CC3)s2)n[nH]1	3	102	101	-5
OCCn1c(CN2CCCCC2)nc2ccccc21	-21	104	103	-5
Cc1cc(C)c2c(-n3cccc3)nn(CC(=O)N3CCCCC3)c2n1	-91	102	101	11
CCOc1nc2cnccc2n(CC(=O)NCc2ccco2)c1=O	-26	100	102	-18
Cc1cc(N2CCN(C)CC2)ccc1NC(=O)C1CC(=O)N(Cc2ccccc2Cl)C1 (configuration not stated)	2	103	115	-1
Cc1cc(NC(=O)C2COc3ccccc3O2)no1 (configuration not stated)	-4	104	109	-14

Compound profiles, from the list above. Order of screens: MbtI inh, Polio RdRp inh, Polio RdRp inh intensity, Mtb MenB inh
Profile of NC(=S)CCn1ncc2c(N)ncnc21 : 68, 91, 104, -10
Profile of OCCn1c(CN2CCCCC2)nc2ccccc21 : -21, 104, 103, -5
Profile of O=S(=O)(c1ccc(F)cc1)N(CCO)CC(O)Cn1c2ccccc2c2ccccc21 (configuration not stated) : 33, 102, 102, -3

(next part)
SMILES	MbtI inh	Polio RdRp inh	Polio RdRp inh intensity	Mtb MenB inh
O=C(Cn1cnc2scc(-c3ccccc3)c2c1=O)N1CCCCC1	nt	100	94	-13
Cc1cccc(N2CCN(CC(O)c3ccc4cc[nH]c4c3)CC2)c1C (configuration not stated)	8	96	101	7
CC(C)N(Cc1nc(-c2ccc(Cl)cc2)no1)C(=O)Cc1ccccc1	-7	101	104	2
CN1C2CCC1CC(OC(=O)c1c[nH]c3ccccc13)C2 (configuration not stated)	-5	99	94	nt
N#Cc1ccc(CSc2nc3ncccc3c(=O)n2Cc2ccccc2)cc1	26	107	120	-7
CCC(CC)NC(=O)COc1cccc2c1OC(C)(C)C2	-3	101	105	7
C/C(N)=C(/C#N)C(=O)CSc1nnc(Cc2cccc3ccccc23)n1N	9	103	98	-22
NS(=O)(=O)c1cc2c(cc1Cl)NCNS2(=O)=O	-5&-10	102&97	99&97	2&3
CN(C)S(=O)(=O)N1CCN(S(=O)(=O)N2CCCCCC2)CC1	-4	103	106	3
O=C(O)CC1CCCCN1 (configuration not stated)	1	103	103	-24
CC1(C)C2CCC(C2)C1C/C=N/NC(N)=O (configuration not stated)	-6	100	100	3
O=S(=O)(NCCc1csc(-c2cccnc2)n1)c1ccccc1	47	106	103	-20
Cc1sc(NC(=O)c2ccc(Br)s2)c(C(N)=O)c1C	-5	100	100	-1
O=C(Nc1cccnc1)/C(N=Nc1cccnc1)=C(\O)c1ccccc1	9	102	94	-21
CCn1c(CCc2ccccc2)n[nH]c1=S	41	101	105	4
Cc1ccc(S(=O)(=O)N(C)CC(=O)OCc2nnc(-c3ccccc3)o2)cc1	4	105	102	10
CCn1c(SCC(=O)N=Nc2c(O)[nH]c3ccccc23)nc2ccccc21	-1	102	100	-25
C/C=N/N(C)c1cc(=O)n(C)c(=O)[nH]1	-5	101	103	-20
COC(=O)c1cc(CSc2nc3ccccc3[nH]2)oc1C	-11	102	94	-31
O=C1/C(=C\c2ccco2)SC(=S)N1CCC(=O)N(CCO)c1ccccc1	19	103	101	-348
CC1CC1C(=O)OCC(=O)Nc1ccccc1Br (configuration not stated)	-14	101	104	nt
CC1CCc2c(sc(NC(=O)C3c4ccccc4Oc4ccccc43)c2C(N)=O)C1 (configuration not stated)	16	99	106	-16
CN1/C(=C2/SC(=O)N(Cc3ccccc3)C2=O)Sc2ccccc21	0	99	110	-7
O=C(c1cccc(Cl)c1)N1CCn2c1nc1ccccc12	-6	101	100	1
Cc1ccc(C2CC(c3cccs3)=NN2C(=O)CSc2nnc(CNC(=O)c3cccs3)n2C)cc1 (configuration not stated)	-7	103	102	-16
Cc1ccc(Sc2c(C)[nH]n(-c3ccccc3)c2=O)cc1	-4	100	100	-2
CCN(CC)C(=O)C(Cc1ccccc1)N1C(=O)C2C3C=CC(C3)C2C1=O (configuration not stated)	-3	102	102	14
CN1CCc2[nH]c(=S)c(C#N)c(-c3ccccc3)c2C1	nt	46	257	-19
CCc1ccccc1-n1nnnc1SC1OC(=O)c2ccccc21 (configuration not stated)	-7	nt	nt	-30
COc1ccccc1N=C=S	-7	99	105	-8
CN(C)C(=O)N1CCN(S(=O)(=O)c2ccccc2)CC1	2	101	99	37*
NC(=O)c1ccccc1NC(=O)Cc1ccccc1	nt	102	99	-1
c1ccc(CN2CCN(c3nc(N4CCOCC4)c4ccccc4n3)CC2)cc1	86	101	99	-13
CC1CCN(C(=S)NCCc2ccccc2)CC1	-8	103	105	-12
Cn1c(C(=O)NCC2(c3ccccc3)CCCC2)cc2c(=O)n(C)c3ccccc3c21	16	104	101	6
CCCN(Cc1cc2cccc(C)c2[nH]c1=O)S(=O)(=O)c1ccccc1	-7	103	103	-13
Cc1ccc(C(C(=O)NCc2ccccc2)N(Cc2ccco2)C(=O)Cn2nnc3ccccc32)cc1 (configuration not stated)	-9	105	103	-1
C=CCn1c(=O)/c(=C2/Sc3ccccc3N2CC)s/c1=C1/C(=O)NN=C1C	7	120	151	-50
COc1ccc(S(=O)(=O)Cc2ccc(C(=O)N3CCOCC3)o2)cc1	15	100	96	-13
c1ccc(CN2CCC(NCc3nnc(-c4ccccc4)o3)CC2)cc1	-9	102	98	-6
COc1ccc(N2C(=NC(C)=O)SC3CS(=O)(=O)CC32)cc1 (configuration not stated)	-5	100	95	15
O=C(O)c1ccc(Br)cn1	2	102	102	-11
O=C(COC(=O)Cc1ccc(S(=O)(=O)N2CCOCC2)s1)Nc1ccccc1	-14	111	123	-24
CC(Sc1nnnn1C)C(=O)Nc1ccccc1 (configuration not stated)	-12	103	103	2
CS(=O)(=O)c1ccc(Cl)c(NC(=O)c2cncn2-c2ccc(F)cc2)c1	-5	109	107	-5

Reformatted field by field: entries from further up.
> COc1ccc(S(=O)(=O)Cc2ccc(C(=O)N3CCOCC3)o2)cc1
  MbtI inh: 15	Polio RdRp inh: 100	Polio RdRp inh intensity: 96	Mtb MenB inh: -13

> c1ccc(CN2CCC(NCc3nnc(-c4ccccc4)o3)CC2)cc1
  MbtI inh: -9	Polio RdRp inh: 102	Polio RdRp inh intensity: 98	Mtb MenB inh: -6

> COc1ccc(N2C(=NC(C)=O)SC3CS(=O)(=O)CC32)cc1 (configuration not stated)
  MbtI inh: -5	Polio RdRp inh: 100	Polio RdRp inh intensity: 95	Mtb MenB inh: 15

> O=C(O)c1ccc(Br)cn1
  MbtI inh: 2	Polio RdRp inh: 102	Polio RdRp inh intensity: 102	Mtb MenB inh: -11

Carrying on.
SMILES	MbtI inh	Polio RdRp inh	Polio RdRp inh intensity	Mtb MenB inh
O=C(N/C(=C/C=C/c1ccccc1)C(=O)N1CCCCC1)c1ccccc1	12	104	99	nt
Cc1cc(NC(=O)C2CC=CCC2C(=O)O)no1 (configuration not stated)	-2	100	102	1
S=C1NCCN1Cc1ccccc1	-1	112	108	-1
CCCc1nnc(NC(=O)CSc2nc(C)cc(C)n2)s1	0	102	102	5
CCCCN1COc2ccc3c(C)cc(=O)oc3c2C1	90	102	104	-2
CN(C)/C=C/C=C1\N=C(c2ccccc2)OC1=O	14	150	123	-292
Cc1[nH]c2ccccc2c1C(=O)CSC(=S)N(C)C1CCCCC1	3	102	97	-30
CCOC(=O)C1=C(C)NC(SCc2cc(=O)[nH][nH]2)=C(C#N)C1c1cccs1 (configuration not stated)	-7	103	103	-16
N#Cc1ccc(-c2ccncn2)cc1	2	101	101	-9
Cc1cc(C)c2c(CC(=O)Oc3ccc(Cl)cc3)coc2c1	-9	101	100	11
CN(C(=O)CSc1ccc(F)cc1)C1(C#N)CCCCC1	4	104	101	-8
CCOC(=O)C1=C(Nc2ccccc2)OCC1=O	nt	104	109	-1
CCOC(=O)N1CCN(CC2=CCC3CC2C3(C)C)CC1 (configuration not stated)	-5	101	106	13
C/C(=N/O)c1ccc(N)cc1	13	100	102	-15
O=c1c2c3n(nnc-2nn1-c1ccccc1)CCC3	-10	106	112	4
O=C(c1cccc(N2C(=O)C3CC=CCC3C2=O)c1)N1CCc2ccccc2C1 (configuration not stated)	-13	101	101	-21
Cc1oc(-c2cccs2)nc1CSc1nc2ccncc2[nH]1	-77	100	94	-16
CCCN1CNC(=S)N(c2cc(C)ccc2C)C1	-227	103	104	-11
CCCN(CCC)S(=O)(=O)c1ccc(C(=O)Nc2ccccc2)cc1	1	101	97	nt
O=C(Nc1nc2ccccc2c(=O)s1)c1ccccc1	13	100	100	-1
Cc1ccc(CSCCC(=O)NC2CCCC(C)C2C)cc1 (configuration not stated)	-7	104	108	-4
COC(=O)c1c(C)oc2ccc(N(C(C)=O)S(=O)(=O)c3ccc(OC)cc3)cc12	-3	106	106	-13
Fc1cnc(N2CCc3ccccc32)nc1N1CCc2ccccc21	23	102	107	-7
CC(C)OP(=O)(c1ccccc1)c1ccccc1	-10	100	103	-55
CCCN(c1ccccc1C(=O)O)S(=O)(=O)c1ccc2c(c1)n(C)c(=O)n2C	2	100	103	-1
CC(C)NC(=O)CC(c1cccs1)N1Cc2ccccc2C1=O (configuration not stated)	-22	104	102	-21
O=C(CSc1nnc(-c2cccs2)o1)NCC1CCCCC1	-148	104	107	-9
Clc1ccc(OCc2nc3c4cnn(-c5ccc(Cl)cc5)c4ncn3n2)cc1	4	104	107	-5
CN(C(=O)Nc1ccc(C(C)(C)C)cc1)C1CCCCC1	15	103	96	13
